Insulin prom inh: TRM-6 insulin promoter activity inhibition; TRM-6 cells (human fetal islet line), insulin promoter-eGFP reporter, imaging; reporter expression induced with tamoxifen; inhibition, % at 2 µM; 0.9% of 130,000 active; AID 1273;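 active = inhibition above the mean plus 3 SD, with well images judged a real hit on visual review, cut at about 60% in these data, passing the limit was not always enough; inconclusive = inhibition over the cutoff but images rejected on review; inactive = inhibition not above the cutoff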
PKD1 kinase inh: blocks activity of human protein kinase D1. AID 797. PKD1 kinase fluorescence polarization assay. inhibition, %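 (about 10 µM by stock and volumes)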. 0.056% of 200,000 active. Q15139;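 active = inhibition of 50% or more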;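 also: controls were vehicle for no effect and a reference inhibitor for full effect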
Target sequence (Q15139 whole entry, looked up): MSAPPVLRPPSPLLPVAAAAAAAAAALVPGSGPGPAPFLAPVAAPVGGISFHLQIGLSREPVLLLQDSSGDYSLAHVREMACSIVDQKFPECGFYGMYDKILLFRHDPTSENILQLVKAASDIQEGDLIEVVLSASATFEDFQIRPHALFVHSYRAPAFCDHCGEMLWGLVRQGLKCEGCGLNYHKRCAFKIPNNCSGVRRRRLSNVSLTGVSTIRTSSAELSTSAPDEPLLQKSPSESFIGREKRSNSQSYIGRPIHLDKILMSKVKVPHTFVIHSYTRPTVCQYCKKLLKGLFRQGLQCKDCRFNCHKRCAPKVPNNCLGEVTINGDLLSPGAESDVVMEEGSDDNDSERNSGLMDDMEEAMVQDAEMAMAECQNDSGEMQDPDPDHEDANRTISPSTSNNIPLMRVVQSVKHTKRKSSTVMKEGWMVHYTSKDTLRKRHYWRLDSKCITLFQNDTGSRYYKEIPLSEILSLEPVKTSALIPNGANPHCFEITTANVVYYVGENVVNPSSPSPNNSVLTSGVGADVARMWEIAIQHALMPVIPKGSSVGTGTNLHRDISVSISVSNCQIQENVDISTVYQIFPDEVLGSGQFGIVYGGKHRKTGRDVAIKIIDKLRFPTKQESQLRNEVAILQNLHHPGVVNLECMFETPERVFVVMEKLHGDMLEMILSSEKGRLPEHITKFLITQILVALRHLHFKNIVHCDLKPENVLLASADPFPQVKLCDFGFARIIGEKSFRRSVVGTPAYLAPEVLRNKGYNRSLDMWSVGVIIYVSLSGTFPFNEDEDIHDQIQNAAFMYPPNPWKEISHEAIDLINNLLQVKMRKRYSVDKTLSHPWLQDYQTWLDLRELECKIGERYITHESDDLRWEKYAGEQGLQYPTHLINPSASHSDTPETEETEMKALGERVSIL
HSV augment: increases HSV replication in cells | HSV replication augmentation in cells, fold increase | 0.005% of 220,000 active | maximum fold increase | AID 1956;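 active = peak rise of 1.5-fold or more in the series; inconclusive = self-fluorescent or not available for retest; tested in PC3 cells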;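 also: first round at 10 µM; read as green reporter fluorescence; hits show the peak of a series up to 25 µM; 1 = signal of infected wells without compound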
GALR2 ag: agonists of human galanin receptor 2 (GALR2). activation, %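 (tested at 5 µM)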. AID 803. O43603. GALR2-expressing cells, agonist activation read-out. 0.48% of 140,000 active;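 active = above mean plus 3 SD of all compounds, about 5% in these data, not always enough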;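 also: 0% = vehicle buffer wells and 100% = reference agonist at full effect; tested in CHO reporter cells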
RGS16-Gao HTS: regulators of human RGS16-Galphao interaction; binding response (% of control), % at 10 µM; bead-based flow cytometry RGS16-Galphao binding, fluorescence; actives lie on both sides; O15492+P09471; 0.38% of 220,000 active; AID 1441;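 active = below 25% or above 175%, edge rows of some plates excepted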;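 also: Galphao activated by GDP with aluminum fluoride before binding; 100% = wells without compound and 0% = beads without RGS; some results beyond the cut were filed as inactive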
Insulin prom inh cell count: further read-out of Insulin prom inh, marked with its call; normalized cell count, %; measured here: cell count, toxicity; reference of the scale not given here;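 cells exposed to compound for 48 h; stained nuclei by imaging scaled within each plate; lower means fewer cells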
HSV augment primary fold: recorded beside HSV augment, whose call it bears; fold increase; compound at 10 µM; measured here: primary screen fold increase 10 uM; tested in PC3 cells;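 GFP signal in the first replicate; 1 = infected wells without compound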
Starred values were filed as active, the others as inactive.

`CCOC(=O)c1sc(NS(=O)(=O)c2ccccc2Cl)nc1C` gave Insulin prom inh 33, PKD1 kinase inh 0, HSV augment inactive, GALR2 ag -0.5, RGS16-Gao HTS 111, Insulin prom inh cell count 101 and HSV augment primary fold 0.92.
`CC(C)(C)NC(=O)COC(=O)CCC(=O)c1cccs1` gave PKD1 kinase inh 4, HSV augment inactive, RGS16-Gao HTS 98 and HSV augment primary fold 0.9.
`CC1CC(=O)c2c(cc3c(-c4c(O)cc(O)c5c(O)c6c(cc45)OC(C)CC6=O)c(O)cc(O)c3c2O)O1` (stereo not drawn) gave PKD1 kinase inh 25, HSV augment inactive, RGS16-Gao HTS 107 and HSV augment primary fold 1.1.
CC1CN(C2CCN(C(=O)COc3ccccc3)CC2)CC(C)O1 (stereo not drawn) was read as Insulin prom inh -33, PKD1 kinase inh 1, HSV augment inactive, GALR2 ag -0.8, RGS16-Gao HTS 105, Insulin prom inh cell count 94 and HSV augment primary fold 1.
CCCCC(=O)Nc1ccc(NC(=S)NC(=O)CC)cc1OC was read as Insulin prom inh -6, PKD1 kinase inh 5, HSV augment inactive, GALR2 ag -1.6, RGS16-Gao HTS 120, Insulin prom inh cell count 69 and HSV augment primary fold 0.94.
Screening CC(C)C(NC(=O)c1ccc2c(c1)OCO2)C(=O)N/N=C\c1ccco1 (stereo not drawn) returned PKD1 kinase inh -3, HSV augment inactive, GALR2 ag 0.0, RGS16-Gao HTS 97 and HSV augment primary fold 0.87.
Screening CCN(CC)S(=O)(=O)c1cccc(-c2nnc(SCC(=O)NC3CCCCCCC3)n2N)c1 returned Insulin prom inh 4, PKD1 kinase inh 1, HSV augment inactive, GALR2 ag -2.4, RGS16-Gao HTS 100, Insulin prom inh cell count 58 and HSV augment primary fold 0.89.
Screening O=C(c1ccc(Cl)cc1)C(Cn1cncn1)C(Sc1ccccc1)c1ccccc1 (stereo not drawn) returned Insulin prom inh -25, PKD1 kinase inh -1, HSV augment inconclusive, GALR2 ag -0.6, RGS16-Gao HTS 111 and Insulin prom inh cell count 116.
Screening Cc1ccc(-n2c(=O)cc(N3CC(C)OC(C)C3)[nH]c2=O)cc1 (stereo not drawn) returned Insulin prom inh 12, PKD1 kinase inh -6, HSV augment inactive, RGS16-Gao HTS 102, Insulin prom inh cell count 138 and HSV augment primary fold 0.97.
`Cc1ccc(NC(=O)CN(c2ccc(Cl)cc2)S(=O)(=O)c2cc([N+](=O)[O-])ccc2Cl)cc1` gave Insulin prom inh 8, PKD1 kinase inh -4, HSV augment inactive, GALR2 ag -0.2, RGS16-Gao HTS 107, Insulin prom inh cell count 150 and HSV augment primary fold 0.66.
Screening COc1cccc(C2C(C#N)=C(N)OC(C(C)(C)C)=C2C#N)c1 (stereo not drawn) returned PKD1 kinase inh -10, HSV augment inactive, GALR2 ag -1.5, RGS16-Gao HTS 92 and HSV augment primary fold 0.96.
For Cc1cc(C(=O)NNC(=S)NCC2CCCO2)cs1 (stereo not drawn) the results were PKD1 kinase inh 10, HSV augment inactive, GALR2 ag -2.6, RGS16-Gao HTS 88 and HSV augment primary fold 0.9.
Screening CCCC(C)c1nnc(NC(=O)C2CCCO2)s1 (stereo not drawn) returned Insulin prom inh -294, PKD1 kinase inh 0, HSV augment inactive, GALR2 ag -1.8, RGS16-Gao HTS 106, Insulin prom inh cell count 58 and HSV augment primary fold 0.97.
For O=C(Nc1cccc2nsnc12)c1cccnc1Cl the results were Insulin prom inh 33, PKD1 kinase inh -2, HSV augment inactive, GALR2 ag -0.9, RGS16-Gao HTS 97, Insulin prom inh cell count 66 and HSV augment primary fold 0.98.
For Cc1ccc(S(=O)(=O)c2c(N)n(C)c3nc4ccccc4nc23)cc1 the results were PKD1 kinase inh 0, HSV augment inactive, GALR2 ag -0.3, RGS16-Gao HTS 101 and HSV augment primary fold 0.97.
CCc1ccc(C(C)NC(=O)Cc2ccc(F)cc2)cc1 (stereo not drawn) was read as PKD1 kinase inh 0, HSV augment inactive, RGS16-Gao HTS 103 and HSV augment primary fold 0.93.
For O=C(O)CCCC(=O)N1N=C(c2ccccc2)CC1c1cccs1 (stereo not drawn) the results were HSV augment inactive, RGS16-Gao HTS 102 and HSV augment primary fold 0.97.
`COc1ccc(/C=C/CN2CCN(CC(C)C)C(CCO)C2)cc1` (stereo not drawn) gave PKD1 kinase inh 4, HSV augment inactive, RGS16-Gao HTS 93 and HSV augment primary fold 0.83.
CCC(=O)Nc1cc(-c2nn(C)c(=O)c3ccccc23)ccc1N1CCCCC1 was read as PKD1 kinase inh 9, HSV augment inactive, GALR2 ag 0.6, RGS16-Gao HTS 96 and HSV augment primary fold 1.
`Cn1c(N)c(C(=O)c2ccc(C#N)cc2)c(=O)n(C)c1=O` gave PKD1 kinase inh 3, HSV augment inactive, GALR2 ag -0.5, RGS16-Gao HTS 100 and HSV augment primary fold 1.1.
`CC(=O)Nc1ccc(S(=O)(=O)NCC(=O)OCC(=O)c2cc(C)n(-c3ccc4c(c3)OCO4)c2C)cc1` gave Insulin prom inh 2, PKD1 kinase inh -9, HSV augment inactive, GALR2 ag -1.1, RGS16-Gao HTS 97, Insulin prom inh cell count 98 and HSV augment primary fold 0.96.
Screening COCC(=O)NCCSc1c(C)[nH]c2ccccc12 returned PKD1 kinase inh -9, HSV augment inactive, GALR2 ag -4.0, RGS16-Gao HTS 117 and HSV augment primary fold 1.
For O=C(NCCc1cn2ccccc2n1)c1cc(COc2c(F)cccc2F)on1 the results were Insulin prom inh -29, PKD1 kinase inh 2, HSV augment inactive, RGS16-Gao HTS 105, Insulin prom inh cell count 73 and HSV augment primary fold 1.
Screening Cc1cccc(/C=C2\Oc3cc(OS(C)(=O)=O)ccc3C2=O)c1 returned Insulin prom inh -6, PKD1 kinase inh -1, HSV augment inactive, GALR2 ag 0.0, RGS16-Gao HTS 98, Insulin prom inh cell count 137 and HSV augment primary fold 1.1.
Screening Cc1c(NC(=O)CSc2ccccc2C(=O)Nc2cccnc2)c(=O)n(-c2ccccc2)n1C returned Insulin prom inh 14, PKD1 kinase inh -3, HSV augment inactive, GALR2 ag -1.9, RGS16-Gao HTS 101, Insulin prom inh cell count 55 and HSV augment primary fold 1.1.
COC(=O)C1=C(C)N(C)C(=S)NC1c1ccc(OC)cc1OC (stereo not drawn) was read as PKD1 kinase inh 3, HSV augment inactive, RGS16-Gao HTS 97 and HSV augment primary fold 1.
`CC(C)CC(=O)NC(=S)NNC(=O)c1ccc(NC(=O)C2CCCCC2)cc1` gave PKD1 kinase inh -9, HSV augment inactive, GALR2 ag -1.5, RGS16-Gao HTS 106 and HSV augment primary fold 0.87.
Screening COc1ccc(NC(=O)Cn2nnc(C(=O)NCCc3ccccc3)c2N)cc1 returned Insulin prom inh 55, PKD1 kinase inh 1, HSV augment inactive, RGS16-Gao HTS 115, Insulin prom inh cell count 75 and HSV augment primary fold 0.88.
`CC1CCC2(CC1)NC(=O)N(CC(=O)NCc1cccs1)C2=O` (stereo not drawn) gave Insulin prom inh 16, PKD1 kinase inh -6, HSV augment inactive, GALR2 ag -0.1, RGS16-Gao HTS 98, Insulin prom inh cell count 105 and HSV augment primary fold 1.1.
For CCOC(=O)C1=C(C)NC(C)=C(C(=O)OCC)C1c1cc2ccc(C)cc2[nH]c1=O the results were PKD1 kinase inh 19, HSV augment inactive, GALR2 ag -1.6, RGS16-Gao HTS 105 and HSV augment primary fold 0.65.
Screening COc1cc(-c2nc(-c3ccccc3)c(-c3cccs3)[nH]2)cc(OC)c1O returned Insulin prom inh 33, PKD1 kinase inh -8, HSV augment inactive, GALR2 ag 0.9, RGS16-Gao HTS 119, Insulin prom inh cell count 91 and HSV augment primary fold 0.86.
CCc1ccc(/C=C/C(=O)c2ccc(N3CCOCC3)cc2)cc1 was read as Insulin prom inh -42, PKD1 kinase inh 2, HSV augment inactive, GALR2 ag -0.8, RGS16-Gao HTS 100, Insulin prom inh cell count 162 and HSV augment primary fold 0.94.
Cc1cccc(NC(=O)C(NS(=O)(=O)c2ccc3c(c2)CCC(=O)N3)c2ccccc2)n1 (stereo not drawn) was read as PKD1 kinase inh -18, HSV augment inactive, GALR2 ag 0.7, RGS16-Gao HTS 105 and HSV augment primary fold 0.9.
`COc1cccc(NC(=O)CN(C)C(C)C(=O)Nc2ccc(C(C)=O)cc2)c1` (stereo not drawn) gave Insulin prom inh -100, PKD1 kinase inh -5, HSV augment inactive, RGS16-Gao HTS 103, Insulin prom inh cell count 124 and HSV augment primary fold 1.1.
CCN1CCN(CC(=O)Nc2cc3c(cc2C(C)=O)OCO3)CC1 was read as PKD1 kinase inh 0, HSV augment inactive, RGS16-Gao HTS 103 and HSV augment primary fold 0.89.
`CN1CCN(C(c2cccc(C(F)(F)F)c2)c2nnnn2Cc2ccccc2)CC1` (stereo not drawn) gave PKD1 kinase inh -12, HSV augment inactive, GALR2 ag 1.0, RGS16-Gao HTS 348 and HSV augment primary fold 0.85.
`COc1ccc(CNC2CCCC2)c(OC)c1OC` gave PKD1 kinase inh 6, HSV augment inactive, GALR2 ag -0.6, RGS16-Gao HTS 102 and HSV augment primary fold 1.1.
COc1ccc(OC)c(-c2csc(N(CC3CCCO3)C(=O)Cc3ccccc3)n2)c1 (stereo not drawn) was read as PKD1 kinase inh -10, HSV augment inactive, RGS16-Gao HTS 106 and HSV augment primary fold 0.98.
`Cc1ccc(CSC2=NCCN2C(=O)C(C)Oc2ccccc2)cc1` (stereo not drawn) gave Insulin prom inh -150, PKD1 kinase inh -8, HSV augment inactive, RGS16-Gao HTS 103, Insulin prom inh cell count 84 and HSV augment primary fold 0.88.
For O=C(Nc1ccc(O)c2c(=O)cc(-c3ccccc3Cl)oc12)c1ccc(Cl)c(Cl)c1 the results were HSV augment inactive, RGS16-Gao HTS 83 and HSV augment primary fold 0.8.

Molecules listed so far that have a tert-butyl group, in the order listed:
`CC(C)(C)NC(=O)COC(=O)CCC(=O)c1cccs1` gave PKD1 kinase inh 4, HSV augment inactive, RGS16-Gao HTS 98 and HSV augment primary fold 0.9.
Screening COc1cccc(C2C(C#N)=C(N)OC(C(C)(C)C)=C2C#N)c1 (stereo not drawn) returned PKD1 kinase inh -10, HSV augment inactive, GALR2 ag -1.5, RGS16-Gao HTS 92 and HSV augment primary fold 0.96.

Additional compounds.
`CCOC(=O)/C(C#N)=C/Nc1cc(C(=O)OCC)cc2c(OC)c(OC)ccc12` gave HSV augment inactive, RGS16-Gao HTS -5.8* and HSV augment primary fold 1.
CC(C)CC(=O)NCc1ccc(F)cc1 was read as Insulin prom inh 38, PKD1 kinase inh 1, HSV augment inactive, GALR2 ag -1.3, RGS16-Gao HTS 99, Insulin prom inh cell count 51 and HSV augment primary fold 0.9.
For CCN(CC)CCC(c1ccc(N(C)C)cc1)c1c(O)cc(OC)cc1OC (stereo not drawn) the results were HSV augment inactive, RGS16-Gao HTS 100 and HSV augment primary fold 0.72.
`Cc1cc(-c2[nH]nc3c2C(c2cccc(O)c2)C(C#N)=C(N)O3)c(C)s1` (stereo not drawn) gave Insulin prom inh 13, PKD1 kinase inh -4, HSV augment inactive, GALR2 ag -0.4, RGS16-Gao HTS 95, Insulin prom inh cell count 133 and HSV augment primary fold 0.93.
For CN(C)c1ccc(NC(=O)CN2CCC(N3CCCCC3)CC2)cc1 the results were Insulin prom inh -55, PKD1 kinase inh 0, HSV augment inactive, GALR2 ag -2.2, RGS16-Gao HTS 102, Insulin prom inh cell count 50 and HSV augment primary fold 0.88.
`CSc1ccccc1C(=O)N1CCOCC1` gave Insulin prom inh 29, PKD1 kinase inh -8, HSV augment inactive, GALR2 ag -0.8, RGS16-Gao HTS 99, Insulin prom inh cell count 110 and HSV augment primary fold 1.1.
Screening CCOc1cc(CN2CCCC(CNC(=O)c3ccc(F)cc3)C2)ccc1OC (stereo not drawn) returned HSV augment inactive, RGS16-Gao HTS 99 and HSV augment primary fold 1.
`COc1ccc(S(=O)(=O)N2CCC(C(=O)N3CCOCC3)CC2)cc1` gave Insulin prom inh 0, PKD1 kinase inh -6, HSV augment inactive, GALR2 ag -1.2, RGS16-Gao HTS 95, Insulin prom inh cell count 115 and HSV augment primary fold 0.95.
N#C/C(=C\c1ccc(O)c([N+](=O)[O-])c1)c1nc2ccccc2s1 was read as Insulin prom inh -9, PKD1 kinase inh -7, HSV augment inactive, RGS16-Gao HTS 117, Insulin prom inh cell count 96 and HSV augment primary fold 1.1.
CCCN(CCC)CCNS(=O)(=O)c1ccc2c(c1)CCN2C(=O)C1CCC1 was read as Insulin prom inh -10, PKD1 kinase inh 1, HSV augment inactive, GALR2 ag -1.7, RGS16-Gao HTS 102, Insulin prom inh cell count 109 and HSV augment primary fold 0.87.

Assay outcomes (PubChem BioAssay)
